EPAC2 antag: Validation qHTS for antagonist of cAMP-regulated guanine nucleotide exchange factor 4 (EPAC2); Rap guanine nucleotide exchange factor 4 (Homo sapiens), Q8WZA2; Potency, µM (doses to about 112 µM), without a hit: at the top dose activity, negative = inhibition, hits mostly inhibitors; EPAC2 Rap1B BODIPY-GDP exchange, fluorescence; hit rate 1.7% among 16,000; active = well fitted inhibition curve with a large enough effect; inconclusive = small, poorly fitted or top-dose-only effect; inactive = no such curve, though single readings can be large or run the other way;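 also: 100% = activation by cAMP agonist control; nearly all actives have a fitted effect of over 40% in size; the record reuses the description of the EPAC1 agonist screen; inactives centre near -10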
Target sequence (Q8WZA2 whole entry, looked up): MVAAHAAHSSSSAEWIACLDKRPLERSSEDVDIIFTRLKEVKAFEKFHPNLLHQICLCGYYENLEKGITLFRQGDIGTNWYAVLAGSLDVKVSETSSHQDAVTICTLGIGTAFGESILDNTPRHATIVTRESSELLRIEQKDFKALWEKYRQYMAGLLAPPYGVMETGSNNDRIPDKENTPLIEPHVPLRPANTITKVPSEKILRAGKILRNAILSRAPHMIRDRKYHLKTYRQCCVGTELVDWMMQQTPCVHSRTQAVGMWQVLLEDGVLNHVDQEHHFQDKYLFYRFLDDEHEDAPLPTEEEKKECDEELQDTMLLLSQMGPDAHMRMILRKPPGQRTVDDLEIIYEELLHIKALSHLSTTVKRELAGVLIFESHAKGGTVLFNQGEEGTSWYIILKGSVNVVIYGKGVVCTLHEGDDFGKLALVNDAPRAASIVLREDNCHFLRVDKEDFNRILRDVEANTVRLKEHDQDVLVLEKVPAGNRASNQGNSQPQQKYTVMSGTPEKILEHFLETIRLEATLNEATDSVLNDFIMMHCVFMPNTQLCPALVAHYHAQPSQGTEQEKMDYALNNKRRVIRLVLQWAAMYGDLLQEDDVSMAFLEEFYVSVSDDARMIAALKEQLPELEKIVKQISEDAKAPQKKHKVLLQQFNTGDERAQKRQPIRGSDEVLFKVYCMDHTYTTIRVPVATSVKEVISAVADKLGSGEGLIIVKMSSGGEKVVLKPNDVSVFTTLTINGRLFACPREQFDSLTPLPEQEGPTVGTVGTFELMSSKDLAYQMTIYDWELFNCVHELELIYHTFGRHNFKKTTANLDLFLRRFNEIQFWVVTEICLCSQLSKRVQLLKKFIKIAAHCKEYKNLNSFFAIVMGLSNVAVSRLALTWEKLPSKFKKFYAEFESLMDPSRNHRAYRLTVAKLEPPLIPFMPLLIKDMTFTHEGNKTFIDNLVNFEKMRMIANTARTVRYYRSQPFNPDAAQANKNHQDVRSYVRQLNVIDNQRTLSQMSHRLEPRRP
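Fluorescent exchange read-out: 100 nM EPAC2 with 250 nM RAP1B–BODIPY-GDP and 50 uM GDP; BODIPY-GDP release lowers fluorescence. Read at 480/540 nm every 5 min for 30 min at room temperature; normalized to 6.5 mM cAMP.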
Starred values were filed as active, the others as inactive; ? = inconclusive; & = joins results of further samples; [ ] = dose if it differs, or a comment. Potency is read from the fitted curve at half-maximal effect. These rows are one share of the data; the hit share may differ from the screen's.

structure	EPAC2 antag
O=C(Cc1nc2ccccc2[nH]1)N1CCC(n2c(C3CCC3)nc3cccnc32)CC1	2%
COC(=O)[C@@H]1C2CC3c4[nH]c5cc(OC)ccc5c4CCN3CC2C[C@H](OC(=O)c2cc(OC)c(OC)c(OC)c2)C1OC (stereo partly specified)	-21%
COc1ccc(-n2c(=O)cnc3cnc(OC)nc32)cc1	-7%
CCN1CCCC1CNC(=O)c1cnn(-c2nccc(-c3cc4ccccc4o3)n2)c1C1CC1 (stereo unspecified)	1%
O=c1c(O)c(-c2ccccc2)oc2cc(O)ccc12	-4%
Cc1nc2cnc(N(C)C)nc2n(Cc2cccs2)c1=O	-30%
COc1cc(CNCc2cc3ccc(F)cc3nc2N2CCOCC2)cc(OC)c1OC	0%
CC(C)C1NC(C(=O)O)Cc2c1[nH]c1ccccc21 (stereo unspecified)	0%
COc1cc(=O)n2c(c1C(=O)N(C)C(C)c1ccco1)CCN(C(=O)c1ccc(C(C)=O)cc1)CC2 (stereo unspecified)	-15%
CN(Cc1ccco1)c1nc(-c2cccc(C#N)c2)nc2ccccc12	-12%
COc1ccc(C(=O)N2CCC3(CCCN(Cc4ccccc4OC)C3)CC2)cc1	-8%
Cc1ccc(C(=O)NCCc2nnc3n2CCN(Cc2ccc4ccccc4c2)CC3)c(C)c1	-17%

Next part
structure	EPAC2 antag
COc1cccc(CNC(=O)c2c(OC)cc(=O)n3c2CCN(C(=O)c2ccccc2Cl)CC3)c1	-7%
COC(=O)[C@H]1C2CC3c4[nH]c5ccccc5c4CCN3CC2CC[C@@H]1O (stereo partly specified)	-29%
CCNc1ncc2nc(C)c(=O)n(Cc3ccc(F)cc3)c2n1	-6%
CCCC(=O)O[C@]1(C(=O)COC(=O)CC)[C@@H](C)C[C@H]2[C@@H]3CCC4=CC(=O)C=C[C@]4(C)[C@@]3(F)[C@@H](O)C[C@@]21C	-5%
CN(C)C(=O)c1ccc(-c2ccc3ncnc(N(C)C)c3c2)cc1	-19%
CN(C)c1ccc(/C=C2\C(=O)Nc3ccccc32)cc1	?
Cc1noc(C)c1C(=O)N1CCC2(CC1)CN(c1ncccn1)C2	-27%
Cn1ccnc1C1CCCCN1C(=O)CN1Cc2ccccc2OC(c2ccccc2F)C1 (stereo unspecified)	?
CCN1C(=O)c2ccccc2C1Nc1ccc(OCCN2CCCCC2)cc1 (stereo unspecified)	-1%
COCC(=O)N1CCC2(CC1)CN(C(=O)Nc1cccc(F)c1)C2	-29%
Cc1cnc(CNc2ncnc3ccc(-c4ccc5c(c4)OCO5)cc23)cn1	?
COCC(=O)N1CCC2(CCN(Cc3cc(C(F)(F)F)cc(C(F)(F)F)c3)CC2)CC1	-25%

Molecules listed so far that contain a halogen:
structure	EPAC2 antag
COc1cc(CNCc2cc3ccc(F)cc3nc2N2CCOCC2)cc(OC)c1OC	0%
COc1cccc(CNC(=O)c2c(OC)cc(=O)n3c2CCN(C(=O)c2ccccc2Cl)CC3)c1	-7%
CCNc1ncc2nc(C)c(=O)n(Cc3ccc(F)cc3)c2n1	-6%
CCCC(=O)O[C@]1(C(=O)COC(=O)CC)[C@@H](C)C[C@H]2[C@@H]3CCC4=CC(=O)C=C[C@]4(C)[C@@]3(F)[C@@H](O)C[C@@]21C	-5%
Cn1ccnc1C1CCCCN1C(=O)CN1Cc2ccccc2OC(c2ccccc2F)C1 (stereo unspecified)	?
COCC(=O)N1CCC2(CC1)CN(C(=O)Nc1cccc(F)c1)C2	-29%
COCC(=O)N1CCC2(CCN(Cc3cc(C(F)(F)F)cc(C(F)(F)F)c3)CC2)CC1	-25%

(further entries)
structure	EPAC2 antag
OCC1NCC(O)C(O)C1O (stereo unspecified)	-7%
NC(C(=O)O)c1cc(O)cc(O)c1 (stereo unspecified)	-7%
COc1cc(OC)c(OC)cc1/C=c1\[nH]c(=O)/c(=C/c2cc(OC)c(OC)cc2OC)[nH]c1=O	-5%
COc1cc(OC)c(CN2CCOc3ccc(CN4CCC(O)CC4)cc3C2)c(OC)c1	12%
Nc1ncc2[nH]cnc2n1	0%
CN(Cc1ccco1)c1nc(-c2cccnc2)nc2ccccc12	?
O=C(O)c1cc(O)c2c(c1)[C@H]([C@H]1c3cc(C(=O)O)cc(O)c3C(=O)c3c(O[C@@H]4O[C@H](CO)[C@@H](O)[C@H](O)[C@H]4O)cccc31)c1cccc(O[C@@H]3O[C@H](CO)[C@@H](O)[C@H](O)[C@H]3O)c1C2=O	79µM*
COc1ccc2c(c1)CCc1cnc(-n3ncc(C(=O)N4CCN(CCO)CC4)c3C3CC3)nc1-2	-7%
Cc1c(N)nc(C(CC(N)=O)NCC(N)C(N)=O)nc1C(=O)NC(C(=O)NC(C)C(O)C(C)C(=O)NC(C(=O)NCCc1nc(-c2nc(C(=O)NCCCN[C@@H](C)c3ccccc3)cs2)cs1)C(C)O)C(O[C@@H]1O[C@@H](CO)[C@@H](O)[C@H](O)[C@@H]1O[C@H]1O[C@H](CO)[C@@H](O)[C@H](OC(N)=O)[C@@H]1O)c1cnc[nH]1 (stereo partly specified)	-1%
COc1ccc2[nH]cc(CCNC(C)=O)c2c1	-11%&-2%&-5%&-4%
CC(NC(=O)c1cccnc1)c1nnc2n1CCN(Cc1ccc(-c3ccccc3Cl)o1)CC2 (stereo unspecified)	-17%
Nc1ccc(-c2ccc3ccccc3n2)cc1	-6%

(listing goes on)
structure	EPAC2 antag
OC[C@H]1O[C@@H](n2cnc3c(NC4CCCC4)ncnc32)[C@H](O)[C@@H]1O	-4%&-2%
O=C(c1cc(-c2ccccc2)on1)N1CCOc2ccc(CN3CCOCC3)cc2C1	2%
COc1ccc(C(=O)NCC2Cc3cccc(-c4ccc(S(C)(=O)=O)cc4)c3O2)c(OC)n1 (stereo unspecified)	-16%
O=C(NCCN1CCOCC1)c1cnn(-c2nccc(-c3ccccc3C(F)(F)F)n2)c1C1CC1	-5%
CC(N)CCCP(=O)(O)O (stereo unspecified)	-10%
CC1(C)SC2C(NC(=O)COc3ccccc3)C(=O)N2C1C(=O)O (stereo unspecified)	-6%
Cc1nc2c(O)cccc2c(=O)[nH]1	-29%
CC[C@H]1OC(=O)[C@H](C)[C@@H](O[C@H]2C[C@@](C)(OC)[C@@H](O)[C@H](C)O2)[C@H](C)[C@@H](O[C@@H]2O[C@H](C)C[C@H](N(C)C)[C@H]2O)[C@](C)(O)C[C@H](C)C(=NOCOCCOC)[C@H](C)[C@@H](O)[C@]1(C)O	14%
Cc1ccc(S(=O)(=O)NCc2ccccc2)cc1	?
COC(=O)[C@@]1(C)CCC[C@@]2(C)c3ccc(O)c(C(C)C)c3CCC21 (stereo partly specified)	?
S=P(N1CC1)(N1CC1)N1CC1	-2%
O=C(/C=C/C=C/c1ccc2c(c1)OCO2)N1CCCCC1	-2%

Shown with each value named: entries from further up.
Cc1ccc(S(=O)(=O)NCc2ccccc2)cc1
  EPAC2 antag: ?
OC[C@H]1O[C@@H](n2cnc3c(NC4CCCC4)ncnc32)[C@H](O)[C@@H]1O
  EPAC2 antag: -4%&-2%

Other entries follow.
structure	EPAC2 antag
N#CCCn1c(=O)c(-c2cccs2)nc2cnc(N3CCNCC3)nc21	2%
CC1(C)C=Cc2c(cc3occ(-c4ccc5c(c4)OCO5)c(=O)c3c2O)O1	-3%
c1ccc2c(c1)CCCC2C1=NCCN1 (stereo unspecified)	-8%&31%&10%
NC(N)=NCc1cccc(I)c1	14%&16%
COc1ccc2[nH]c(C)cc2c1	-6%
COc1ccc(OC)c(-c2cc(Cl)c3c(c2)CC(CNC(=O)[C@@H]2CCCN2C(C)=O)O3)c1 (stereo partly specified)	-28%
CCC[C@H]1COCCS(=O)(=O)N1Cc1ccc(F)cc1	?
COc1cc(C(=O)N2CCOCC2)cc(OC)c1OC	21%&-24%
OCC1OC(n2cnc3c(NCc4ccco4)ncnc32)C(O)C1O (stereo unspecified)	-10%
OC[C@H]1O[C@@H](Oc2ccc(O)cc2)[C@H](O)[C@@H](O)[C@@H]1O	1%
O=C(NCCNC[C@@H](O)COc1ccc(O)cc1)N1CCOCC1	-23%
COc1ccc2[nH]cc(CCNc3ccnc(-c4cccnc4)n3)c2c1	-36%

(cont.)
structure	EPAC2 antag
Nc1ncnc2c1ncn2[C@@H]1O[C@H](COP(=O)(O)OP(=O)(O)OP(=O)(O)OP(=O)(O)OC[C@@H]2O[C@H](n3cnc4c(N)ncnc43)[C@@H](O)[C@H]2O)[C@@H](O)[C@H]1O	-1%&-9%
CC(=O)Nc1ccccc1-c1nc(CNC(=O)c2ccc(Cl)cc2)c(C)o1	-22%
CC(=O)OC1CC2C(C)(C)C(=O)C=C[C@]2(C)C2CC[C@@]3(C)C(c4ccoc4)OC(=O)C4O[C@@]43[C@]12C (stereo partly specified)	-11%
CCNc1ncc2nc(-c3ccc(F)cc3)c(=O)n(C[C@H]3CCCO3)c2n1	0%
CCCCCCCC/C=C\CCCCCCCC(=O)OC[C@@H](O)COP(=O)(O)O	-14%[11.4 µM]
O=C(c1cc(C(F)(F)F)cc(C(F)(F)F)c1)N1CCC2(CCCN(c3ccncc3)C2)CC1	?
Cn1nccc1C(=O)NCC1CCC2(CCN(Cc3cccc4ncccc34)CC2)O1 (stereo unspecified)	-2%
CC(C)(CO)NC(=O)c1cnn(-c2ncc3c(n2)-c2ccccc2CC3)c1C1CC1	-27%
O=C1CC(c2ccc(O[C@@H]3OC(CO)[C@@H](O)C(O)C3O)cc2)Oc2cc(O)ccc21 (stereo partly specified)	2%
COC(=O)CC1C(C)(C)C(=O)C2CC3=C(CC[C@]4(C)C3=CC(=O)OC4c3ccoc3)[C@@]1(C)C2=O (stereo partly specified)	-13%
C[C@@H]1CN(c2c(F)c(F)c3c(=O)c(C(=O)O)cn(C4CC4)c3c2F)C[C@H](C)N1	-19%
CC1CCCC(C)N1NC(=O)c1ccc(Cl)c(S(N)(=O)=O)c1 (stereo unspecified)	-16%[56.6 µM]

Later entries.
structure	EPAC2 antag
Cc1noc(C)c1C(=O)N1CCC[C@@]2(CCN(Cc3ccccc3)C2)C1	-14%
CCOC(=O)C[C@H]1c2cc(C(F)(F)F)ccc2S(=O)(=O)N1C(C)C	-9%
c1cncc(-c2cc(NCc3cccs3)ncn2)c1	-19%
CCNc1ncc2nc(-c3ccccc3)c(=O)n(C[C@H]3CCCO3)c2n1	3%
COc1ccccc1CNc1ncncc1-c1ccccc1C(F)(F)F	?
CN(C)C(=O)c1ccc(-c2ccc3ncnc(NCc4ccccc4)c3c2)cc1	-13%
COc1ccccc1CCn1c(=O)c(-c2ccc(F)cc2)nc2cncnc21	-13%
COc1ccc(C(=O)C[n+]2cccc(Br)c2)cc1	?
CCOC(=O)C1=C(C)NC(=S)NC1c1cccc(O)c1 (stereo unspecified)	-42%
CC(=O)[C@]1(O)CCC2C3CC(C)C4=CC(=O)C=CC4(C)[C@@]3(F)C(O)C[C@]21C (stereo partly specified)	0%
CC(=O)OC1CC2C(C)(C)C(O)CC[C@@]2(C)C2CC[C@@]3(C)C(c4ccoc4)OC(=O)C4OC43[C@]12C (stereo partly specified)	?
CN(C)C(=O)c1ccc(-c2nc(Nc3ccccc3)c3ccccc3n2)cc1	-28%

Following part
structure	EPAC2 antag
CCCC1([C@H](O)C/C=C/[C@H]2[C@H](O)CC(=O)[C@@H]2CCCCCCC(=O)OC)CCC1	?
CCCCCCCC/C=C\C/C=C\C/C=C\CCCC(=O)NCCO	-21%[11.4 µM]
CCCCCCCCCCCCCCCCOCC(CO)OC(C)=O (stereo unspecified)	?
Cc1onc(-c2ccccc2)c1C(=O)N[C@@H]1C(=O)N2[C@@H](C(=O)O)C(C)(C)S[C@@H]12	10%
COc1ccc2c3c1O[C@H]1C[C@H](O)C=C[C@@]31CCN(C)C2	?
O=P(O)(O)C(Sc1ccc(Cl)cc1)P(=O)(O)O	32%[activator]
CC(=O)N1CCC2(CCCN(Cc3ccccc3)C2)CC1	-11%
COCCn1c(=O)c(CCc2ccccc2)nc2cnc(Nc3cccc(OC)c3)nc21	-30%
COc1cccc(C(=O)NCC2Cc3cccc(-c4nc(C)cnc4C)c3O2)c1OC (stereo unspecified)	-9%
Oc1cc(-c2cccs2)cc2c1OCCN(Cc1cn[nH]c1-c1ccc(Cl)cc1)C2	?
CC(=O)NC1C(OC2OC(CC(O)C3OC([N+]4=CCC(=O)NC4=O)C(O)C3O)C(O)C(O)C2NC(=O)/C=C/CCCCCCCCC(C)C)OC(CO)C(O)C1O (stereo unspecified)	-36%[56.6 µM]
CC1=C(C(=O)O)N2C(=O)[C@@H](NC(=O)[C@H](N)c3ccccc3)[C@H]2SC1	-12%

Further structures follow:
structure	EPAC2 antag
CC[C@H](C)[C@H](NC(=O)OCC1c2ccccc2-c2ccccc21)C(=O)O	-8%
COCC(=O)N1CCC2(CC1)CCN(C(=O)Nc1cccc(F)c1)CC2	-14%
O=c1ccn([C@@H]2O[C@H](CO)[C@@H](O)[C@H]2O)c(=O)[nH]1	-7%
Cc1c[nH]c(=O)n(CCCN2CCN(c3ccccc3OCC(F)(F)F)CC2)c1=O	-28%

Bioassay records from PubChem.
